PrP 5UTR inh: suppresses PrP 5' UTR mRNA reporter expression; cell-based PrP 5' UTR mRNA reporter, plate reader; inhibition, % (concentration not given with the values); 340,000 compounds, 0.35% hits; AID 488862;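 active = every replicate at 50% or more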;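 also: 0 = median of the neutral control wells; tested in H4 reporter cells; numbers are from one replicate; inactives centre near -14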
Autofluor counter: counter-screen for toxin protease inhibitors: compound fluorescence; compound autofluorescence counterscreen, microsphere flow cytometry; hits give high values; fluorescence intensity (concentration not given with the values); 360,000 compounds, 3.1% hits; AID 624483;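 active = at least 3 SD above the mean of all compounds, about 16000 in these data; inconclusive = too few beads counted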;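 also: 100 nL of 1 mM stock went into each well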
Starred values were filed as active, the others as inactive; u = inconclusive; & = joins results of further samples. Not all compounds are listed; the hit share may differ from the screen's.

SMILES	PrP 5UTR inh	Autofluor counter
CCOC(=O)O[C@]1(C(=O)COC(=O)CC)CC[C@H]2[C@@H]3CCC4=CC(=O)C=C[C@]4(C)[C@H]3[C@@H](O)C[C@@]21C	2	5119
CN1OC[C@@H]2CN(S(=O)(=O)c3ccccc3)[C@H](c3cccc(Br)c3)C[C@@H]21	-11	3818
NC(=O)N/N=C/c1ccc(-c2ccc(S(=O)(=O)Nc3ncccn3)cc2)o1	-14	u
O=C(c1cc(-c2ccccc2)nc2ccccc12)N1CCN(C2CCS(=O)(=O)C2)CC1 (centres undefined)	15	3785
O=C1C2C3C=CC(O3)C2C(=O)N1Cc1ccncc1 (centres undefined)	-15	4104
COCCNC(=O)N1[C@H]2CC[C@@H]1C(C(=O)OC)=C(c1cccc(C#N)c1)C2	-7	4015
CC1=CC2C(C(O)CC3(C)C2CC(C)C32OCOC23COCO3)C2(C)C/C(=C\O)C(=O)C=C12 (centres undefined)	-59	3494
Cc1[nH]c(=O)nc(NN=Cc2ccc(Cl)cc2)c1C(=O)Nc1ccc(Cl)cc1	-12	3725
C[C@@H]1CN([C@@H](C)CO)C(=O)c2cc(NC(=O)CCC(F)(F)F)ccc2O[C@H]1CN(C)S(=O)(=O)c1ccc(Cl)cc1	-18	4009
CC(C)(C)OC(=O)CC[C@@H](C(=O)NCCCCCCCCCCC(=O)N1CCN(C(=O)OC(C)(C)C)CC1)n1cc(CCCCCNC(=O)OC(C)(C)C)nn1	13	2912
COc1ccccc1C1C2=C(N=c3s/c(=C/c4cccc(OCC(=O)O)c4)c(=O)n31)c1ccccc1CC2 (centres undefined)	-4	1972
CC(C)CCN1CCC(CN2C(=O)C(=O)NC[C@@H]2Cc2ccccc2)CC1	-10	3998
CN1C[C@@H]2[C@@H]3C(=O)N(Cc4ccccc4)C(=O)[C@@H]3[C@](Cc3ccccc3)(C1=O)N2C(=O)c1ccc(F)cc1	-17	4391
CNc1nc(N/N=C/c2cc([N+](=O)[O-])ccc2F)nc(Nc2ccccc2)n1	-13	4569
N#Cc1c(NC(=O)c2ccccc2Cl)n(Cc2ccccc2)c2nc3ccccc3nc12	-10	2894
COc1ccc([C@H]2CC(=O)C=C(c3ccc(F)nc3)C2)cc1OC	-18	3560
CCCCCCCCCCCCCCCC(=O)OCC1OC(n2ccc(N)nc2=O)C(O)C1O (centres undefined)	-38	3278
CNc1ncnc(Sc2nc(N)nc3nc[nH]c23)c1[N+](=O)[O-]	15	2742
CN(C)CCCO[C@@H]1[C@H]2OC(C)(C)O[C@H]2O[C@@H]1[C@H](O)CO	27	6045
O=C(Cn1cc(COc2ccccc2C(F)(F)F)nn1)c1ccc(O)cc1	-34	3396
COc1ccc(/C=C(/NC(=O)c2ccccc2)C(=O)N/N=C/c2ccc3c(c2)OCO3)cc1OC	-3	10438
CCOC(=O)CN1C(=O)N[C@@H](c2ccccc2)C(C(=O)OC)=C1C	4	2996
CCOC(=O)[C@H]1[C@H]2COc3ccc(Br)cc3[C@@H]2N2C(=O)c3cc(F)c(F)cc3NC(=O)[C@@]12C	-7	3014
O=C1NC2c3c(I)sc(I)c3C(=O)C2O1 (centres undefined)	-23	4260
COC(=O)C1=C(c2ccc(-c3ccccc3)c(F)c2)C[C@@H]2CC[C@H]1N2C(=O)NCCNC(C)=O	-20	4018

By substructure, those above containing four or more nitrogen atoms.
SMILES	PrP 5UTR inh	Autofluor counter
NC(=O)N/N=C/c1ccc(-c2ccc(S(=O)(=O)Nc3ncccn3)cc2)o1	-14	u
Cc1[nH]c(=O)nc(NN=Cc2ccc(Cl)cc2)c1C(=O)Nc1ccc(Cl)cc1	-12	3725
CC(C)(C)OC(=O)CC[C@@H](C(=O)NCCCCCCCCCCC(=O)N1CCN(C(=O)OC(C)(C)C)CC1)n1cc(CCCCCNC(=O)OC(C)(C)C)nn1	13	2912
CNc1nc(N/N=C/c2cc([N+](=O)[O-])ccc2F)nc(Nc2ccccc2)n1	-13	4569
N#Cc1c(NC(=O)c2ccccc2Cl)n(Cc2ccccc2)c2nc3ccccc3nc12	-10	2894
CNc1ncnc(Sc2nc(N)nc3nc[nH]c23)c1[N+](=O)[O-]	15	2742

Structures above with a cyano group, in the order listed:
SMILES	PrP 5UTR inh	Autofluor counter
COCCNC(=O)N1[C@H]2CC[C@@H]1C(C(=O)OC)=C(c1cccc(C#N)c1)C2	-7	4015
N#Cc1c(NC(=O)c2ccccc2Cl)n(Cc2ccccc2)c2nc3ccccc3nc12	-10	2894

Following part:
SMILES	PrP 5UTR inh	Autofluor counter
O=C(O)c1cc(N2CCCCC2)ccn1	-15	4333
Cc1ccc(C(=O)Nc2cccc(S(=O)(=O)N3CCCCC3)c2)cc1S(=O)(=O)N1CCOCC1	-10	2816
COc1ccc(-c2oc(=O)c3cc(OC)c(OC)cc3c2/C=C/c2ccc([N+](=O)[O-])cc2)cc1	-10	3138
CC1(C)C=Cc2c(ccc3c2OC[C@H](c2ccc(O)cc2O)C3)O1	-18	3721
CC(=O)Nc1ccc(S(=O)(=O)NC2(c3ccccc3)C(=O)N(C)C(=O)N(C)C2=O)cc1	-10	3411
O=C1CCC/C=C/C[C@H](CC(=O)N(CCO)Cc2ccccc2)C(=O)N[C@@H](Cc2ccccc2)CO1	-14	4029
CCCNC(=O)N1[C@H]2CC[C@@H]1C(C(=O)OC)=C(c1ccc(C(C)=O)cc1)C2	-9	3982
COc1ccccc1-n1cnnc1SC(C)C(=O)NCC1CCCO1 (centres undefined)	-20	4319
Cc1ccccc1C(=O)O[C@H]1[C@H](Cc2ccccc2)NS(=O)(=O)[C@H]2CC3C=C[C@]12O3	-5	3163
C=C(C)C1(CCCC)C(=O)NC(=S)NC1=O	-16	3451
COc1ccc(OC)c(Nc2nc(=O)c3cccnc3s2)c1	-30	4610
C[C@H](CO)N1C[C@H](C)[C@@H](CN(C)S(=O)(=O)c2cn(C)cn2)Oc2c(NS(=O)(=O)c3ccc(F)cc3)cccc2C1=O	-21	2971
C/C(=N\NC(=O)c1cccc(S(=O)(=O)N2CCOCC2)c1)c1ccc(O)cc1	-12	8728
CC(C)(COC(=O)c1ccccc1)N1CC2CCC(C1)O2	10	2794
C[C@H](CO)N1C[C@H](C)[C@@H](CN(C)S(=O)(=O)c2cn(C)cn2)Oc2ccc(NC(=O)Cn3cnnn3)cc2C1=O	-30	3781
CC(C)(C)OC(=O)C[C@@H]1C/C=C\C[C@@H](CC(=O)N(CCO)Cc2ccccc2)C(=O)N[C@H](Cc2ccccc2)COC1=O	-17	4389
Nc1ccc(C(=O)NN2C(=O)[C@H](Cl)C2c2ccc(Cl)cc2)cc1 (some centres undefined)	-5	5920
COc1cc([N+](=O)[O-])c2nc(C(=O)O)ccc2c1	-7	3456
CC(NCCN(C)C)C1CCC2C3CCc4cc(O)ccc4C3CCC12C (centres undefined)	-20	4198
O=C1CCCCC1Nc1ccc(Cl)cc1 (centres undefined)	-26	3880
O=C(CCCC(=O)NN=Cc1ccc(Cl)cc1Cl)NN=Cc1ccc(Cl)cc1Cl	-9	4133
C=CC[C@@H](CC(=O)N[C@@H](CO)Cc1ccccc1)C(=O)N[C@@H](C)COC(=O)[C@@H](CC=C)Cc1ccc(F)cc1	-18	3160
Cc1noc(C)c1NC(=O)Nc1ccc2c(c1)C(=O)N([C@H](C)CO)C[C@H](C)[C@@H](CN(C)C(=O)Nc1ccc3c(c1)OCO3)O2	-1	4076
C#CCOCCOCCOCCNc1nc(N2CCN(C(=O)CCCCCCCCCCNC(=O)[C@H](CCCCN)n3cc(CCCC(=O)O)nn3)CC2)nc(N2CCN(C(=O)CCCCCCCCCCNC(=O)[C@@H]([C@H](C)O)n3cc(C)nn3)CC2)n1	-15	4052
CN(C)C(CNC(=O)c1cc2ccccc2o1)c1ccccc1 (centres undefined)	-1	4650

Quoted at random: 3 compounds from above
SMILES	PrP 5UTR inh	Autofluor counter
C=CC[C@@H](CC(=O)N[C@@H](CO)Cc1ccccc1)C(=O)N[C@@H](C)COC(=O)[C@@H](CC=C)Cc1ccc(F)cc1	-18	3160
CC1(C)C=Cc2c(ccc3c2OC[C@H](c2ccc(O)cc2O)C3)O1	-18	3721
Cc1noc(C)c1NC(=O)Nc1ccc2c(c1)C(=O)N([C@H](C)CO)C[C@H](C)[C@@H](CN(C)C(=O)Nc1ccc3c(c1)OCO3)O2	-1	4076

Further entries:
SMILES	PrP 5UTR inh	Autofluor counter
CN1Cc2cnnn2-c2ccccc2C1c1ccccc1 (centres undefined)	-8	2899
NC(=O)C1CCN(c2nc(-c3ccccc3F)cs2)CC1	-40	3585
C=CCN([C@H](C(=O)OC)C(C)C)S(=O)(=O)CCNCc1ccccc1	-14	3963
CN1C(=O)C(C2CCCCC2)C(=O)N(C)C1=O	-26	3360
CN1CCC(=C2c3ccccc3Sc3ccccc32)CC1	8	6073
Cc1ccc(NC(=O)c2nc[nH]c2C(=O)N[C@H](C)c2ccccc2)cc1	-7	3941
O=C1C=C(c2ccc3ncccc3c2)C[C@@H](c2ccc(Cl)cc2)C1	-13	3621
CCC[C@@H](CN1CCC[C@H]1CN1C(N)=NC[C@@H]1Cc1ccccc1)N1C[C@@H](Cc2ccccc2)N(CCc2ccc(Cl)c(Cl)c2)C1=N	-15	4070
COC(=O)C1=C(c2ccc(F)cc2OCc2ccccc2)C[C@@H]2CC[C@H]1N2C(=O)NCCCOC(C)C	-8	2947
O=C(O)c1ccccc1C(=O)c1cccc2c(F)cccc12	-13	3664
Cc1cc(C2=CC(=O)C[C@H](c3ccc4c(c3)OCO4)C2)ccc1F	-11	4397
c1ccc(CN2CCOCC2)nc1	-7	3716
Cc1c(C)c([N+](=O)[O-])c(C)c(C)c1N	-23	4207
O=C1CC2CCCN2C=C1I (centres undefined)	-11	3472
C[C@@H]1CCCCCCCCC(=O)OCCN(C(=O)OC(C)(C)C)[C@H](C)CCCCCCCCC(=O)OCCN1C(=O)OC(C)(C)C	-20	4344
COc1cccc(CN(c2ccccc2C(=O)O)S(=O)(=O)c2ccc(C)cc2)c1	40	3382
C[C@@H](O)CC#Cc1ccc2oc(=O)c(-n3cc(-c4ccsc4)nn3)cc2c1	-5	3209
CC1(C)S[C@@H]2[C@H](NC(=O)C(C(=O)O)c3ccccc3)C(=O)N2[C@H]1C(=O)O (some centres undefined)	7	5289
C[C@H]1CN([C@@H](C)CO)C(=O)c2cccc(NC(=O)Nc3ccc(C(F)(F)F)cc3)c2O[C@@H]1CN(C)S(=O)(=O)c1ccc(Cl)cc1	-9	3705
COC(=O)C1=C(c2cccc(OCc3ccccc3)c2)C[C@@H]2CC[C@H]1N2C(=O)NCCOc1ccccc1Cl	-13	2969
CC(=O)Nc1ccc(SCCN2CC[C@@H](C)CCC2=O)cc1	6	3951
C[C@H](NC(=O)c1ccccc1)C(=O)OCC(=O)Nc1ccc2c(c1)OCO2	-2	3022
Cc1noc(C)c1S(=O)(=O)N(C)C[C@H]1Oc2ccc(NC(=O)Cc3ccccc3)cc2C(=O)N([C@H](C)CO)C[C@@H]1C	-19	3515
Cc1noc(C)c1S(=O)(=O)N(C)C[C@H]1Oc2ccc(NC(=O)C3CCCCC3)cc2C(=O)N([C@H](C)CO)C[C@@H]1C	-24	2835
Cc1ccc2c(c1)C(=O)C(=O)N2Cc1ccc(Br)cc1	-15	3875
SMILES	PrP 5UTR inh	Autofluor counter
Cc1ccc(NC(=O)COC(=O)CNC(=O)c2cccs2)cc1S(=O)(=O)N1CCOCC1	-19	3557
CN(C)CCNc1ccc(CO)c2oc3ccc(O)cc3c(=O)c12	-23	3001
CC(=O)N/N=C/c1cc(C(C)(C)C)cc(/C=N/NC(C)=O)c1O	-33	4306
CCC/C(C#Cc1ccc(N(C)C)cc1)=C1/c2ccccc2C(=O)N1c1ccccc1	-20	14269
COC(=O)C1=C(c2ccc(F)cc2OCc2ccccc2)C[C@@H]2CC[C@H]1N2C(=O)N1CCC(O)(c2ccc(Cl)cc2)CC1	-21	3079
COC(=O)C1=C(C)N(Cc2ccccc2)C(=NCc2ccc3c(c2)OCO3)N[C@H]1c1ccccc1	-25	4247
C[C@@H]1O[C@@H](O[C@@H]2[C@@H](O)[C@H](OCCc3ccc(O)c(O)c3)O[C@H](CO)[C@H]2OC(=O)/C=C/c2ccc(O)c(O)c2)[C@H](O)[C@H](O)[C@H]1O	-25	3737
CN1CC[C@@]2(C)c3cc(O)ccc3N(C)[C@@H]12	-10&-24	5297&5280
COC(=O)c1cc(C)ccc1/C=C1/Cc2c(C)cc(C)cc2C1=O	-4	3684
O=C1C=C(c2ccc3ccccc3c2)C[C@@H](c2ccc(F)cc2)C1	-45	3908
O=Cc1cc2c(cc1[B-](F)(F)F)OCO2	-13	3022
CCOC(=O)c1c(/N=C/C2C(=O)NC(=O)NC2=O)sc2c1CCC2	6	3797
C#CCOCCOCCOCCNc1nc(N2CCN(C(=O)C([C@@H](C)O)n3cc([C@@H](N)CCCCN)nn3)CC2)nc(N2CCN(C(=O)[C@H](CCC(=O)O)n3cc([C@@H](N)CCCCN)nn3)CC2)n1 (some centres undefined)	-12	3887
CN(C)c1ccc(/C=C2\Oc3ccc(C#Cc4cccc(N)c4)cc3C2=O)cc1	-24	11423
C[C@H](CO)N1C[C@H](C)[C@@H](CN(C)C(=O)Nc2ccccc2)Oc2c(NC(=O)C3CCCCC3)cccc2C1=O	-15	3502
COc1cc([N+](=O)[O-])c2nc(C=NNC(N)=S)ccc2c1	-9	4611
Cc1ccccc1C1=C/C(=C(\SS/C(C(=O)c2ccc(OCC(=O)O)c(Cl)c2Cl)=C2\C=C(c3ccccc3C)SS2)C(=O)c2ccc(OCC(=O)O)c(Cl)c2Cl)SS1	-2	3365
COc1cc([C@@H]2CC=C(C(=O)O)CN2S(=O)(=O)c2ccc(C)cc2)cc(OC)c1OC	-3	3515
O=C(C(=Cc1ccc(F)cc1)c1ccccc1)c1ccc(O)cc1	-9	3588

Assay outcomes deposited in PubChem by several laboratories.
